Calb FLC: affects C. albicans growth with fluconazole; C. albicans CaCi-2 (fluconazole-resistant clinical isolate) + fluconazole, Alamar Blue growth, 48 h; 300,000 tested, 0.57% active; growth inhibition, % (test concentration not listed);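 active means most replicates above 75%; inconclusive means exactly half above 75%; inactive means most below 75%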;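 further: all wells also contain fluconazole at 8 µg/ml as a sub-toxic cotreatment; 0% = median of DMSO wells and 100% = median of geldanamycin control wells; wells of about 8 µL received 7.5 nL stock; the first replicate is given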
T cruzi repl: T. cruzi replication inhibition; T. cruzi beta-gal in NIH3T3, luminescence, 90 h; inhibition, % (test concentration not listed); 300,000 tested, 1.4% active;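 active means mean inhibition across valid replicates above about 55%, limit read from the data; inconclusive means mean below that limit but half or more replicates reach it; inactive means mean below it, under half of replicates reach it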;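 further: signal also drops with host cell toxicity which is not excluded here; 0% = plate median of DMSO wells and 100% = zero luminescence signal; higher percent means less beta-gal luminescence so fewer parasites; stock transfer was 50 nL into about 50 µL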
LANA-H2A inh: blocks KSHV LANA binding to histone H2A/H2B; cell-free LANA-H2A/H2B peptide, fluorescence polarization; inhibition, % (test concentration not listed); 320,000 tested, 0.6% active; AID 2629; in the data active means inhibition mostly above about 10%, no sharp cut-off; inactive means mostly below about 6.7%;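 further: stock transfer was 7.5 nL into about 10 µL; 0% = median of vehicle wells and 100% = median of positive control wells; one replicate is shown; the record names a cut of 25% in any replicate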
B2AR ag: human beta-2 adrenergic receptor agonism by FAP; Am2.2-beta2AR cells, FAP receptor internalization, flow cytometry; reference of the scale not given here; response, % (no concentration beside the values); 340,000 tested, 0.43% active; AID 504454; P07550;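 active means response above a set limit, near 3 SD of response in nonfluorescent compounds, cut at about 42% in these data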;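 further: stock transfer was 100 nL into about 11 µL; a reference agonist was the positive control; negative values mostly stem from fluorescent compounds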
Target sequence (P07550 whole entry, looked up): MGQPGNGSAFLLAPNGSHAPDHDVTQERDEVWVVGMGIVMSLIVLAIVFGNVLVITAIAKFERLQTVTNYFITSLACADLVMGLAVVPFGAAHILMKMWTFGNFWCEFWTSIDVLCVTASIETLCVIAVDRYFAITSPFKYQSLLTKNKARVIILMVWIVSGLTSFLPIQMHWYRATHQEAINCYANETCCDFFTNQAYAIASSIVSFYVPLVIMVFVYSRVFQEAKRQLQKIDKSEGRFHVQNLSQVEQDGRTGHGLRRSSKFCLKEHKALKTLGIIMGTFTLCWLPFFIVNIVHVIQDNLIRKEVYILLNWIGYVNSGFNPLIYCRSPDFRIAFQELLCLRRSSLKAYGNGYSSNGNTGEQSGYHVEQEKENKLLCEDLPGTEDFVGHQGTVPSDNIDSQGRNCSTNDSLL
Beta cell apopt: beta cell apoptosis inhibition. INS-1E cytokine-induced death, ATP luminescence, 48 h; percent of positive-control rescue, neutral wells zero. protection from apoptosis, % (test concentration not listed). 300,000 tested, 0.8% active. AID 435005;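 active means all replicates at 75% or more, or half of them and the mean; inconclusive means half reach 75% but not the mean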;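 further: 0% = cytokine-treated negative control wells and 100% = positive control rescue; higher means more ATP so stronger rescue from cytokine killing; wells of about 40 µL received 100 nL stock; the first replicate is given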
UCH37 inh: inhibitors of human deubiquitinating enzyme UCH37; AID 588478; 330,000 tested, 0.33% active; purified proteasome/UCH37, Ub-AMC cleavage fluorescence; Q9Y5K5; inhibition, % (no concentration beside the values);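 active means mean of two replicates above 20%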;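 further: 0% = compound-free wells with enzyme and 100% = wells lacking proteasome; stock transfer was 100 nL into about 20 µL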
Target sequence (Q9Y5K5 whole entry, looked up): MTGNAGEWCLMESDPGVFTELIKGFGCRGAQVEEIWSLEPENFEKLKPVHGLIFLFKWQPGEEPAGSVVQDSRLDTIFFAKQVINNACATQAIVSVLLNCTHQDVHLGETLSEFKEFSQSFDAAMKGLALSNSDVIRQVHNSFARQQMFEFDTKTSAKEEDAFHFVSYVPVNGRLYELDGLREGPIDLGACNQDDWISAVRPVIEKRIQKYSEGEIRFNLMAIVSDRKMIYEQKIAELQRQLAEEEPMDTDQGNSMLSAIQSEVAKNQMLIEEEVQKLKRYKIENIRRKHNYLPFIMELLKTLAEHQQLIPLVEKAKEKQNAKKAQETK
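System: Proteasome-associated human UCH37 deubiquitinase; Input: 0.15 nM proteasome in added enzyme buffer; Also added: Ub-AMC substrate from 1 µM stock; Incubation: 30 min compound-proteasome preincubation then 25 min substrate reaction, room temperature; Detection: fluorescence, ex 355 nm, em 460 nm; Read-out: % inhibition of Ub-AMC cleavage fluorescence; Benchmarks: no-proteasome and no-compound wells.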
Bfl-1 A1 inh: inhibitors of the anti-apoptotic protein A1, read as caspase activation; AID 2462; 330,000 tested, 0.066% active; caspase activation, % (no concentration beside the values); MEF A1-2A-BIM cells, Caspase-Glo 3/7 luminescence, 3 h; percent of clofoctol response, vehicle zero;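 active means over half of replicate activation scores above 10%, or exactly half above 10 with the replicate mean above 10; inconclusive means replicate mean below 10 yet half the replicates above 10; inactive means over half of replicates below 10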;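 further: wells of about 30 µL received 50 nL stock; many hits fall short of the cut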
RanGTP-Imp inh: disruptors of Ran-importin-beta complex formation – biochemical, FRET, CFP-Ran, YFP-importin-beta, homogeneous, primary screen; 300,000 tested, 1.1% active; inhibition, % (test concentration not listed); cell-free CFP-Ran/YFP-importin-beta FRET ratio; AID 2216;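 active means most replicates above 15%; inconclusive means exactly half above 15%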;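 further: 0% = DMSO wells and 100% = Ran loaded with GDP instead of GTP; wells of about 40 µL received 100 nL stock; the first replicate is given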
Active calls of the source: *; u = inconclusive; x = no result given.

SMILES	Calb FLC	T cruzi repl	LANA-H2A inh	B2AR ag	Beta cell apopt	UCH37 inh	Bfl-1 A1 inh	RanGTP-Imp inh
CCN(CC)CCN(C(=O)c1ccc([N+](=O)[O-])cc1)c1nc2c(OC)cccc2s1	-4	16	-0.6	0	4	4.7	0.1	5.0
S=C(NCCc1ccccn1)Nc1ccc(Cl)cc1	-7	-9	-2.9	-7	-5	6.1	1.3	-0.7
O=C(OCC(=O)N1CCc2ccccc2C1)c1c(F)cccc1Cl	x	x	1.3	-5	0	-2.4	-2.8	x
CCc1nc(NC(=O)Cc2csc(C)n2)sc1C(=O)OC	-13	-7	-8.4	-8	2	1.7	0.7	-1.4
CCOc1c(C(=O)CC)cc2c(C)cc(=O)oc2c1C	-8	0	-3.1	1	-2	-1.3	-0.2	-1.5
COc1ccccc1/C=C/C(=O)NCC(=O)N/N=C/c1ccc(C)o1	0	7	0.5	5	0	x	0.7	0.7
Cc1nc(NC(=O)c2ccco2)sc1-c1csc(Nc2ccc(Cl)cc2)n1	4	30	-1.2	14	7	x	-1.2	9.7
Cc1ccc2[nH]c3c(=O)n(CCCN4CCN(C)CC4)cnc3c2c1	4	20	-13	4	x	-25	0.4	0.8
O=C(CNC(=O)c1ccc(Cl)cc1)c1ccccc1	-1	-13	4.4	-2	-4	-0.5	-4.4	0.9
CS(=O)(=O)NCCNC(=O)c1cc(OCC(F)(F)F)ccc1OCC(F)(F)F	-9	14	0.0	0	-4	3.9	0.2	-1.3
CC1CCC(NCC(=O)Nc2cccc(S(N)(=O)=O)c2)CC1 (stereo not given)	2	-16	3.6	-4	-5	3.4	-0.1	0.1
Cc1ccc(C(=O)N/C(=C\c2cn(S(=O)(=O)N(C)C)c3ccccc23)C(=O)NCCCN2CCOCC2)cc1	-14	20	7.8	0	4	5.8	0.6	4.6
C=CCN(CC=C)C(=O)Nc1ccc2nc(C)sc2c1	-7	-5	-0.9	-20	2	0.3	1.0	1.5
O=c1oc2ccccc2n1CCn1c2ccccc2c2nc3ccccc3nc21	-2	9	-0.7	-3	8	-14	-0.4	28*
CCOP(=O)(OCC)C(O)c1cc(OC)c(OC)c(OC)c1 (stereo not given)	-8	-5	3.2	2	-9	4.4	0.7	4.1
CN(C(=O)CCN1C(=O)c2ccccc2C1=O)c1ccccc1	-1	-6	-1.6	-6	-2	4.9	0.2	1.4
Cc1ccc(-n2ncc3c(=O)n(CC(=O)N(C)C)cnc32)cc1C	3	-18	1.8	7	x	-1.3	0.1	3.3
O=c1[nH]nc(N/N=C/c2ccccc2OC(F)F)c(=O)[nH]1	12	0	2.4	4	0	x	-1.3	-3.0
O=C1CCCc2c1nc(-c1ccccc1)n2O	17	6	-4.9	0	0	-33	-0.3	-3.5
CCOC(=O)c1cc(C#N)c(SCC(=O)O)[nH]c1=O	22	-4	-7.1	-2	0	-46	1.1	3.1
COc1ccc(-c2nnc3ccc(SCC(N)=O)nn23)cc1OC	5	-7	-2.8	0	-8	2.3	-1.3	-5.9
COc1ccc(-c2noc(=O)n2Cc2ccccc2Cl)cc1	6	6	-3.2	26	3	5.4	2.0	u
O=C(Nc1ccc(Nc2ccccc2)cc1)c1ccco1	1	-21	0.8	10	5	1.4	-0.6	-1.8
CC(C)CCNC(=O)NC(=O)CSc1nnc(-c2ccccc2Br)o1	10	7	2.4	6	3	5.4	0.2	1.7
CCOc1ccc(-c2nnc3sc(COc4ccccc4)nn23)cc1	-39	-26	-5.8	-11	-3	1.7	0.2	-1.8

Going on with the list.
SMILES	Calb FLC	T cruzi repl	LANA-H2A inh	B2AR ag	Beta cell apopt	UCH37 inh	Bfl-1 A1 inh	RanGTP-Imp inh
NC(=O)c1cc(S(=O)(=O)NCCCc2ccco2)cs1	-5	-4	-1.3	-1	4	0.8	-2.3	-2.7
CCOc1cc(/C=N\Nc2ccc([N+](=O)[O-])cc2)ccc1OCC(=O)Nc1ccc(C)c(C)c1	-2	11	0.7	-46	5	x	-0.5	-5.5
COCC(C)n1c(C)cc(C(=O)CSc2ncccn2)c1C (stereo not given)	9	-4	2.0	-4	-5	2.1	0.4	5.1
Cc1nnc(N2CCOCC2)c2ccccc12	-2	-5	1.7	5	-2	2.3	0.3	-0.7
C/C(=N\NC(=S)NC1CCCCC1)c1cccs1	33	23	-2.1	-11	22	x	0.3	0.3
Cc1cc(Cl)ccc1OCC(=O)N1CCCCC1	-3	-1	-6.3	2	2	4.1	-1.2	-0.5
Cc1ccc(CN2CCN(C/C(Cl)=C/c3ccccc3)CC2CCO)o1 (stereo not given)	-10	7	3.2	-3	2	2.3	0.3	-2.4
Cc1ccc2nsnc2c1NC(=O)COc1ccccc1F	114*	17	-0.4	-1	0	1.2	0.4	3.6
C=CCn1c(SCC(N)=O)nc2nc3c(cc2c1=O)COC(C)(C)C3	-4	-10	1.1	-5	0	-17	-0.2	2.9
Cc1ccc2c(c1)N(C(=O)CCC(=O)NCCN1CCOCC1)CC(C)O2 (stereo not given)	-2	5	-0.7	26	7	1.4	x	-2.1
COC(=O)c1c(C)oc(C)c1S(=O)(=O)N(Cc1ccccc1)C(C)C	-4	0	2.6	-8	-1	0.9	0.3	2.4
CN(Cc1cccs1)S(=O)(=O)c1ccc(Cl)cc1F	x	x	-2.3	-9	-3	-4.0	-0.2	x
CC(Sc1nc(N)cc(=O)[nH]1)C(=O)Nc1nc2c(s1)CCCC2 (stereo not given)	24	3	-2.5	-1	-6	5.4	-0.1	-0.1
CC(C)(C)OC(=O)N1CCC(C(=O)O)CC1	0	-7	-0.9	6	-2	1.8	0.5	4.0
O=C(CNC(=O)c1ccc(Cl)cc1)OCn1nnc2ccccc2c1=O	x	x	4.4	9	-10	-1.3	0.3	x
COc1ccc(CCNC(=O)/C(C#N)=C/c2ccc(OCC(=O)NCC3CCCO3)cc2)cc1OC (stereo not given)	3	11	0.2	4	-3	6.0	0.3	u
COc1ccc2cc(C(C)c3nc4ccccc4c(=O)n3N)ccc2c1 (stereo not given)	3	-2	-2.2	1	-12	2.1	0.1	-0.2
CCc1c(C)nc2ncnn2c1N1CCC(C(=O)N2CCN(c3ccc(F)cc3)CC2)CC1	-7	17	3.5	-1	-2	5.8	1.0	2.1
NS(=O)(=O)c1ccc(O)c(N2C(=O)c3cccc4c(C(=O)O)ccc(c34)C2=O)c1	-19	-11	-0.3	3	-7	8.1	0.1	-3.1
CC1CCCCN1CCn1c(=S)[nH]c2cc3c(cc2c1=O)OCO3 (stereo not given)	16	6	2.1	-1	-1	2.3	0.0	1.4
Cc1cc2oc(C(=O)N(Cc3ccccc3)c3ccccn3)cc(=O)c2cc1Cl	0	11	4.4	-1	-4	4.1	0.3	2.3
CCCCC1CC(CSc2ncn[nH]2)OC1=O (stereo not given)	-2	-10	1.7	5	-5	3.6	1.1	-1.7
O=C1c2ccccc2C(=O)N1CC(O)CN1CCOCC1 (stereo not given)	6	1	-0.4	4	3	0.9	-0.2	2.7
Cc1ccccc1-c1ncc(CN2CCN(C3CCCC3)C(CCO)C2)cn1 (stereo not given)	-3	7	-0.8	-7	-1	0.8	1.1	3.7
Cc1ccc(CNC(=O)COc2cc(O)c3c(c2)OC(C)(C)CC3=O)cc1	-4	3	-1.6	-6	-7	2.0	-0.2	0.6

2 compounds drawn at random from those above:
SMILES	Calb FLC	T cruzi repl	LANA-H2A inh	B2AR ag	Beta cell apopt	UCH37 inh	Bfl-1 A1 inh	RanGTP-Imp inh
COCC(C)n1c(C)cc(C(=O)CSc2ncccn2)c1C (stereo not given)	9	-4	2.0	-4	-5	2.1	0.4	5.1
CC(C)(C)OC(=O)N1CCC(C(=O)O)CC1	0	-7	-0.9	6	-2	1.8	0.5	4.0

(more compounds)
SMILES	Calb FLC	T cruzi repl	LANA-H2A inh	B2AR ag	Beta cell apopt	UCH37 inh	Bfl-1 A1 inh	RanGTP-Imp inh
CCOc1ccc(NC(=O)CN2CCN(CC(=O)Nc3ccc4c(c3)OCCO4)CC2)cc1	x	x	1.8	-5	0	3.2	0.3	x
Cc1cccc(CN2C3=NCCCN3c3ccccc32)c1	-20	9	-2.3	-22	-1	4.1	0.8	-0.2
Cc1ccc(S(=O)(=O)N(CC2CO2)c2cc(Cl)ccc2Cl)cc1 (stereo not given)	5	13	-4.1	4	1	5.4	0.1	5.7
CCOC(=O)N1CCN(C(=O)c2ccc3c(=O)n(Cc4ccccc4)c(=S)[nH]c3c2)CC1	13	-7	-4.3	-1	4	3.8	1.3	-2.4
COc1ccc(S(=O)(=O)n2nc(C)c(S(=O)(=O)N3CCOCC3)c2C)cc1OC	4	-23	0.6	x	-4	x	0.8	0.8
CCC(CC)C1=NN2C(=N)/C(=C\c3cc(C)n(-c4cccc(C)c4)c3C)C(=O)N=C2S1	20	5	-3.7	-4	4	-3.5	0.7	-3.5
CCc1c(C)nc2c(C#N)c(C)[nH]n2c1=O	-4	-5	3.3	3	-7	5.5	1.0	4.5
Cc1nn(-c2ccccc2)c2nc(C(F)F)cc(C(F)F)c12	x	x	0.3	1	0	-45	0.0	x
CC(C)C(=O)Nc1cccc(C(=O)Nc2ccc(S(=O)(=O)Nc3nccs3)cc2)c1	4	-8	1.7	-2	x	0.4	3.2	-1.5
Cc1sc2ncn(CC(=O)N3CCCC(C)C3)c(=O)c2c1S(=O)(=O)N1CCCCC1 (stereo not given)	-11	9	-1.2	1	0	-0.6	-0.2	5.9
C#CCNC(=O)C(C)c1ncc(C(F)(F)F)cc1Cl (stereo not given)	-6	1	5.8	6	3	-1.2	0.8	0.3
Cc1c(N2C(=O)c3cccc4cccc(c34)C2=O)cnn1C	1	-5	1.9	-1	-1	3.2	0.9	2.9
O=C(O)c1c(C(=O)O)c(-c2ccc(F)cc2)n2c1CCC2	-2	-11	4.6	-5	-3	x	0.8	-2.5
CN(C)/C=N/c1c(C#N)cnn1-c1ccccc1	0	-3	2.5	4	-1	x	-0.2	2.4
Cn1ncc(Br)c1C(=O)N1CCCC1	7	-12	-4.2	-2	x	x	1.6	-2.5
Cc1cc2nc(-c3cccc(NC(=O)c4ccc(Br)o4)c3C)oc2cc1C	-4	-9	-1.8	-5	15	0.4	0.9	-4.9
O=[N+]([O-])c1cccc(CSC2=NCCN2S(=O)(=O)c2ccccc2)c1	7	9	-18	24	3	-0.6	-0.2	-2.2
O=C(CCC(=O)Nc1ccccc1Cl)NNC(=O)COc1ccc([N+](=O)[O-])cc1	x	x	0.2	-1	0	0.5	1.1	x
COc1cc2c(cc1O)C(SC)=NC(C)(C)C2	-10	-9	-2.9	29	-9	2.7	1.1	0.3
O=C(CSc1ccc(-c2ccc(Br)cc2)nn1)N1CCOCC1	-11	-6	-0.1	-1	-2	-1.7	-1.0	4.3
Cc1cccc(N2CCN(C(=O)c3ccc(NC(=O)CC4SC(N5CCCC5)=NC4=O)cc3)CC2)c1C (stereo not given)	x	x	5.3	-6	-9	5.6	-0.6	x
CSc1ncccc1C(=O)NC1CCN(Cc2ccccc2)CC1	0	22	4.6	-10	-5	1.6	-1.5	2.9
CC1(c2ccc(OC(F)F)cc2)NC(=O)N(CC(=O)Nc2ccc(OC(F)F)cc2)C1=O (stereo not given)	11	5	-2.8	3	-1	5.3	-0.2	u
CN(C)S(=O)(=O)c1cccc(C(=O)NCC2CCCCC2)c1	-5	2	5.6	-9	-4	6.4	0.2	2.0
